# Assay outcomes: PubChem, National Center for Advancing Translational Sciences (NCATS)
# HTT promoter inh: Primary qHTS for Identification of Small Molecule Inhibitors of Huntingtin Promoter Activity; Potency, µM (series often up to 57.5 µM), without a hit: at the top dose activity change, negative = inhibition, hits mostly inhibitors; 48,000 compounds, 0.93% hits; HEK293 HTT promoter firefly luciferase reporter (activity 0% = vehicle and -100% = no light), 24 h; active = well fitted inhibition curve with a large enough effect; inconclusive = small, poorly fitted or top-dose-only effect; inactive = no such curve, though single readings can be large or run the other way; note: nearly all actives have a fitted effect of over 50% in size
#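 Quantitative HTS used concentration series of up to 57.5 uM final on HEK293 luciferase reporter cells, 24 h at 37 degrees C. Readout was Dual-Glo firefly luminescence.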
# PMP22 txn: Cell-based coincidence reporter assay to measure PMP22 gene transcription in S16 Pmp22-F2sN cells - Primary screen. S16 Pmp22-F2sN Schwann cells (luciferase reporters placed in the Pmp22 gene), FLuc/NLuc coincidence luminescence, 24 h. Potency, µM (highest dose often 57.5 µM), without a hit: top-dose activity change, negative = inhibition, actives largely listed as inhibitors. 43,000 compounds, 2% hits. AID 1508649, 2021; active = clear falling dose curves in both reporters; inconclusive = both reporters move, but less clearly or upward; inactive = either reporter flat; the % is the NLuc reporter signal; note: % is set by controls: 0 for no effect and ±100 for the full control effect; some results filed as inactive show a strong effect at the top dose
#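 Transcriptional readout in edited S16(c9) cells: two luciferases reported from the Pmp22 locus, measured in turn after 24 h compound incubation.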
# An asterisk follows results filed as active; ? = inconclusive; nt = not tested or not shown; & = joins results of further samples; [ ] = another dose, or the depositor's remark. Potency is the fitted concentration of half-maximal effect.
SMILES,HTT promoter inh,PMP22 txn
O=C1C2=C(Nc3ccccc3SC2c2ccc(C(F)(F)F)cc2)c2ccccc21 (stereo not drawn),?,?
O=C(CSc1ccc(-c2cccs2)nn1)Nc1ccccc1,9.9%,6.4%
CCn1c(C)c(C)c2cc(C(=O)NCCc3cc(OC)ccc3OC)ccc21,-11.1%,?
COc1cc2c(cc1Cc1cccc(Cl)c1F)c(=O)c(C(=O)O)cn2[C@H](CO)C(C)C,?,nt
CC(C)c1ccc(C(=O)Nc2cc(-c3ccccc3F)nn2-c2ccccc2)cc1,-39.0%,-4.3%
Cc1c(Cl)cccc1Nc1nc2ccc(C(=O)c3ccccc3)cc2n2cnnc12,?,-27.6%
CCc1ccccc1N1CC(c2nc3ccccc3n2CCCCOc2ccccc2)CC1=O (stereo not drawn),2.0%,?
Cc1c(CCNC(=O)c2ccc(C(C)(C)C)cc2)sc2nc(-c3ccc(F)cc3)nn12,-2.6%,-23.8%
CCC(C)NC(=O)CSc1nc2cc3c(cc2c(=O)n1CCCCCC(=O)NCc1ccc(OC)cc1)OCO3 (stereo not drawn),-10.9%,6.6%
Cc1ccc(-n2cnc3cc(C(=O)NC4CCCCCC4)ccc32)cc1Cl,?,-37.3%
O=c1c2oc3ccccc3c2n(Cc2ccc(Cl)cc2)c(=O)n1Cc1ccccc1,-16.0%,-8.8%
COc1cc(Nc2ncc3c(n2)CCN(Cc2ccc(OC(C)C)c(OC)c2)C3)cc(OC)c1,-34.1%,-78.2%
Cc1ccc(CN2CCc3nc(N4CCN(C)CC4)ncc3C2)s1,-10.2%,-3.7%
Cc1cc(C)c(NC(=O)Cn2c(=O)c3cccn3c3ccccc32)c(C)c1,-3.9%,5.0%
COc1cccc(-c2nc(SCC(=O)NCC3CCCO3)c(-c3ccc(Cl)cc3)[nH]2)c1 (stereo not drawn),?,-7.9%
CCOc1ccc(S(=O)(=O)NCc2ccc3c(c2)CCN3C(=O)c2ccc(C)cc2)cc1,?,?
COc1ccc(CCC(=O)NCc2nc3cccnc3n2Cc2ccc(F)cc2)cc1,-24.5%,?
O=c1c2cccnc2n(Cc2ccccc2F)c(=O)n1Cc1ccccc1Cl,-5.9%,-7.7%
Cc1nc2c(C(=O)NCCCN(CC(C)C)CC(C)C)cnn2c(C)c1Cc1c(F)cccc1Cl,-17.6%,?
CC(C)(C)C1CCc2c(sc(NC(=O)Cn3nnc(-c4ccccc4F)n3)c2C#N)C1 (stereo not drawn),-4.6%,-27.7%
Cc1cc(C)c(NC(=O)CSc2nc(C)cc(C)c2C#N)c(C)c1,-0.6%,-0.4%
Cc1ccccc1Nc1c(-c2ccc(N3CCOCC3)cc2)nc2ccc(Cl)cn12,4.0%,-0.4%
CCN1C(=O)c2ccccc2S(=O)c2ccc(C(=O)N3CCN(c4ccccc4)CC3)cc21 (stereo not drawn),-16.4%,?
O=C(Cc1ccc(Cl)cc1)NCC(c1cccs1)S(=O)(=O)c1ccc(Cl)cc1 (stereo not drawn),?,3.4%
CCOC(=O)C(C)Sc1ccc2nnc(CCNS(=O)(=O)c3ccccc3)n2n1 (stereo not drawn),-2.6%,-8.5%
COc1ccc(Cn2c(CCC(=O)Nc3cc(OC)c(OC)c(OC)c3)nc3cccnc32)cc1,-21.2%,-1.4%
Nc1c(C(=O)Nc2cccc(Cl)c2)sc2nc3c(cc12)CN(Cc1ccccc1)CC3,-22.5%,-19.4%
COc1ccc(Nc2nnc(-c3ccc(C)c(S(=O)(=O)NCc4nc5ccccc5[nH]4)c3)c3ccccc23)cc1,?,?
Cc1ccc(NC(=O)Cn2c(=O)n(Cc3nc(C)no3)c(=O)c3cc4c(cc32)OCO4)c(Cl)c1,0.9%,-2.9%
COc1ccccc1CNC(=O)c1cc2sccc2n1Cc1ccc(F)cc1,-23.5%,?

# Copied from above for reference:
SMILES,HTT promoter inh,PMP22 txn
O=C(Cc1ccc(Cl)cc1)NCC(c1cccs1)S(=O)(=O)c1ccc(Cl)cc1 (stereo not drawn),?,3.4%
CCOC(=O)C(C)Sc1ccc2nnc(CCNS(=O)(=O)c3ccccc3)n2n1 (stereo not drawn),-2.6%,-8.5%
COc1ccc(Cn2c(CCC(=O)Nc3cc(OC)c(OC)c(OC)c3)nc3cccnc32)cc1,-21.2%,-1.4%
Nc1c(C(=O)Nc2cccc(Cl)c2)sc2nc3c(cc12)CN(Cc1ccccc1)CC3,-22.5%,-19.4%

# Next part.
SMILES,HTT promoter inh,PMP22 txn
Cc1cccc(NC(=O)c2cc3c([nH]c2=O)CC(c2ccccc2)CC3=O)c1 (stereo not drawn),-1.3%,?
Cc1ccc(Cl)cc1NC(=O)Nc1c(C)n(C)n(-c2ccccc2)c1=O,-13.7%,44.6%
CCOC(=O)c1c(NC(=O)c2nc(SCC)ncc2Cl)sc2c1CCCC2,6.5%,-14.9%
Cc1cc2c(cc1NC(=O)c1ccccc1C)n(C)c(=O)c(=O)n2C,1.2%,-20.9%
Cc1ccc(Cn2c(CNC(=O)Cc3cccc(C)c3)nc3cccnc32)cc1,-8.3%,-6.0%
COc1cccc(-c2csc(-c3c(N)c(C(=O)c4ccccc4)n4ccccc34)n2)c1,4.6%,-13.6%
COc1ccccc1C(=O)Nc1ccccc1C(=O)OCc1cc(=O)n2ccsc2n1,-8.5%,-6.1%
CC(=O)c1cccc(NC(=O)CCS(=O)(=O)c2ccc(Br)s2)c1,-5.1%,-21.1%
CCc1ccccc1NC(=O)Cn1c(=O)c2cccn2c2ccc(F)cc21,-10.7%,-4.3%
CCc1ccc(NC(=O)Cn2nnc(C(=O)NCc3ccco3)c2N)cc1,-12.7%,-0.8%
Cc1c(C(=O)Nc2ccccc2Cl)oc2ccc(S(=O)(=O)N3CCCCC3)cc12,-15.9%,14.1µM*
CC1(C)NC(=O)N(c2ccc([N+](=O)[O-])c(C(F)(F)F)c2)C1=O,-28.1%&-17.7%,nt
CC(C)CCNC(=O)c1nn(C)c2c1CSc1ccccc1-2,6.6%,?
COC(=O)CSc1nnc(-c2cccc(O)c2)o1,-0.6%,-6.3%
COc1cc(Cl)c(NC(=O)CCS(=O)(=O)c2cc3c(cc2Cl)NC(=O)CO3)c(OC)c1,20.6%,-20.3%
CC(=O)N1CCc2c(sc3c2c(=O)n(-c2ccccc2)c(=O)n3CC(=O)c2ccccc2)C1,-2.8%,-0.4%
Cc1ccc(C(=O)Nc2ccc3c(c2)N(C)C(=O)c2ccccc2S3)cc1,?,?
COc1c(C)cccc1C(=O)Nc1ccc(Cl)c(-c2nc3cc(C)ccc3o2)c1,-25.5%,-53.1%
CC(C)Oc1ccc(C(=O)N(Cc2ccco2)Cc2cccs2)cc1,-14.2%,0.8%
Cc1ccc(-c2cc3c(n2-c2ccccc2F)CC(C)(C)CC3=O)cc1,2.4%,-21.4%

# Four compounds drawn at random from those above:
SMILES,HTT promoter inh,PMP22 txn
Cc1ccc(-c2cc3c(n2-c2ccccc2F)CC(C)(C)CC3=O)cc1,2.4%,-21.4%
CC(=O)N1CCc2c(sc3c2c(=O)n(-c2ccccc2)c(=O)n3CC(=O)c2ccccc2)C1,-2.8%,-0.4%
COc1cc(Cl)c(NC(=O)CCS(=O)(=O)c2cc3c(cc2Cl)NC(=O)CO3)c(OC)c1,20.6%,-20.3%
CC(C)Oc1ccc(C(=O)N(Cc2ccco2)Cc2cccs2)cc1,-14.2%,0.8%

# Carrying on.
SMILES,HTT promoter inh,PMP22 txn
COc1ccc(CCNc2nc(-c3ccc(C)cc3)cc(C(F)F)n2)cc1OC,-1.0%,-11.5%
COC(=O)c1ccc(NC(=O)C(=O)NCC(c2cccnc2)N2CCN(c3ccccc3)CC2)cc1 (stereo not drawn),-24.4%,-48.0%
O=C(Nc1ccc(F)cc1)C1CCN(c2nc3ccccc3n3cccc23)CC1,-0.2%,?
CCn1c(=O)c2cc(C(=O)NCCc3cccc(C)c3)sc2c2ccccc21,2.0%,?
Cc1ccc(CCNC(=O)c2nn(C)c3c2CSc2ccccc2-3)cc1,-17.9%,-19.0%
Cc1ccc(CNc2oc(-c3ccc(COc4ccc(Cl)cc4)o3)nc2C#N)cc1,?,?
O=C(O)CCCc1c[nH]c2ccccc12,-12.0%,nt
O=C1c2ccccc2C(=O)C1c1ccc(Br)cc1,10.8%,nt
CC1=C(C(=O)Nc2ccccc2)C(c2ccc[nH]2)n2ncnc2N1 (stereo not drawn),-3.1%,-23.3%
CC(NC(=O)c1ccc2c(c1)N(Cc1ccc(Cl)cc1)C(=O)c1ccccc1S2=O)c1ccccc1 (stereo not drawn),-20.9%,-12.0%
CS(=O)(=O)N(CC(=O)NCCSc1ccccc1)c1cc(C(F)(F)F)ccc1Cl,-22.0%,-2.9%
CCOC(=O)COc1ccc(C)cc1C(=O)c1ccn2nc(-c3ccc(Cl)cc3)cc2n1,-12.0%,?
O=C(Nc1cccc(Cl)c1)c1cc(-c2ccccc2)on1,2.1%,16.5%
Cc1ccc(Cl)cc1-n1ncc2c(N3CCCCCC3)ncnc21,?,?
Cc1cccc(C(=O)Nc2nnc(S(=O)(=O)N(C)Cc3ccc(Cl)cc3)s2)c1,-17.2%,-76.6%
O=C(Nc1nnc2n1CCS2)c1ccc(F)cc1F,52.5%[activator],-18.4%
COc1ccc(-c2nnc(SCC(=O)Nc3cccc(F)c3)s2)cc1,?,9.1%
Cc1ccc(-n2c(=O)c3c4c(sc3n(CC(=O)c3ccc(Cl)cc3)c2=O)CCC4)cc1C,-18.4%,-8.6%
Cc1nc2c(c(C)nn2-c2ccccc2)c(C)c1CCC(=O)NCCc1ccccc1,-1.5%,-15.0%
Cc1ccc(N2CCN(C(=O)Cc3c(C(=O)O)c(C)cn3C)CC2)c(C)c1,?,-1.4%
COc1ccc(-c2noc(-c3ccc(N4CCCC4)c([N+](=O)[O-])c3)n2)cc1,-20.8%,-9.2%
COc1cccc(CNC(=O)C2(c3cccs3)CCOCC2)c1,-2.7%,-8.3%
O=C(CSc1nnc(CNC(=O)c2c(F)cccc2Cl)o1)Nc1ccccc1F,-5.2%,-7.7%
Cc1cccc(C(=O)Nc2ccccc2OCc2cc(=O)n3c(C)csc3n2)c1,1.0%,-2.7%
COc1ccc(CNC(=O)c2ccc(-c3nc(CSc4ccccc4)c(C)o3)cc2)cc1,-20.2%,-2.6%
Cc1ccc(-n2nc3c(N4CCC(C(=O)NC5CCC(C)CC5)CC4)nnc(C)c3c2C)cc1 (stereo not drawn),-15.7%,?
COCCCNC(=O)CCCn1c(=O)c2ccccc2n(CC(=O)Nc2ccc(C)cc2Cl)c1=O,-3.2%,-1.5%
CSc1ccc2c(c1)N(CCC1CCCCN1C)c1ccccc1S2 (stereo not drawn),?,nt
CSc1ncc(C(=O)NCc2ccc(F)cc2)c(-c2ccccc2)n1,-0.1%,-29.6%
CCOC(=O)c1nc(Nc2ccc(C(=O)OC)cc2)c2ccccc2n1,-19.2%,?
Cc1nc2nc[nH]n2c(=O)c1CCC(=O)Nc1ccc(F)cc1,2.6%,-0.5%
CCc1ccc(CNC(=O)c2ccc3nc(C(C)C)oc3c2)cc1,-2.9%,-7.3%
Cc1ccccc1C(=O)n1nc(-c2ccco2)nc1NCc1ccc(Cl)cc1,3.6%,6.8%
COc1ccc(N2CCN(CC(O)COc3ccc(C(C)(C)C)cc3)CC2)cc1 (stereo not drawn),-23.0%,-2.5%
COc1ccccc1-c1nn2c(=O)cc(CN3CCN(C(=O)/C=C/c4ccccc4)CC3)nc2s1,-22.5%,?
N=C1SC(=Cc2ccc(-c3ccc4c(c3)C(=O)NC4=O)o2)C(=O)N1c1ccc(Br)cc1,10.7%,nt
CCc1ccc(NC(=O)C(=O)NCC(c2cccnc2)N2CCN(C)CC2)cc1 (stereo not drawn),-15.1%,?
CS(=O)(=O)N1CCc2cc(C(=O)N3CCN(c4ccccc4)CC3)ccc21,-20.2%,-14.2%
COc1ccc(CNC(=O)c2cc3c(s2)-c2c(C)cccc2OC3)cc1,-5.6%,?
COc1ccccc1CNC(=O)c1ccc2c(c1)N(Cc1ccc(C)cc1)CCS2,?,?
Cc1ccc(C2=Nc3ccc(Cl)cc3OC2)cc1,17.8%,nt
CCC(=O)Nc1ccc(S(=O)(=O)NCc2cccn2Cc2cccc(C)c2)cc1,-21.6%,-6.4%
CCOc1ccc(-c2cn3nc(CC(C)C)sc3n2)cc1,52.8%[activator],-27.9%
CC1=C(C(=O)Nc2cccc(C(F)(F)F)c2)C2(CCCCCC2)OC1=O,-9.2%,-12.7%
Cc1[nH]c2ccccc2c1C1(O)C(=O)N(Cc2ccc(Cl)cc2)c2ccccc21 (stereo not drawn),-21.4%,?
CCN(C(=O)Cn1nc(Cc2cccnc2)c2ccccc2c1=O)c1cc(C)ccc1C,-21.7%,?
CCOc1ccccc1Nc1nc(-c2ccc(C)cc2)c(CC(=O)O)s1,-1.5%,-14.5%
c1ccc(CNc2nc(NCc3ccccc3)c3ccccc3n2)cc1,?,nt
CN1CCc2c(sc3c2C(=O)NC(c2ccc(OC(=O)c4ccc(Cl)cc4)cc2)N3)C1 (stereo not drawn),20.9%,?
COc1ccc(-n2c(Cc3ccccc3)nnc2SCc2nc(-c3cccs3)no2)cc1,-29.8%,?
COc1ccc(-c2nc3scc(CCNS(=O)(=O)c4cc(F)ccc4OC)n3n2)cc1OC,6.5%,-3.2%
CCCCCCC1CCC(C(=O)NC(C(=O)O)C(C)C)CC1 (stereo not drawn),?,14.6%
